Cruzain Triton: qHTS Assay for Promiscuous and Specific Inhibitors of Cruzain (with detergent); Cruzipain (Trypanosoma cruzi), P25779; AID 1478, 2009; actives 0.43% (n = 200,000); purified cruzain, Z-FR-AMC fluorescence, 0.01% Triton; Potency, µM, without a hit: max response, negative = inhibition, actives largely listed as inhibitors;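 also: plate controls were neutral wells for no effect and buffer without enzyme for full effect; nearly all actives have a fitted effect of over 40% in size; top concentration of the series not given in the record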
Target sequence (P25779 123-467 limits assumed): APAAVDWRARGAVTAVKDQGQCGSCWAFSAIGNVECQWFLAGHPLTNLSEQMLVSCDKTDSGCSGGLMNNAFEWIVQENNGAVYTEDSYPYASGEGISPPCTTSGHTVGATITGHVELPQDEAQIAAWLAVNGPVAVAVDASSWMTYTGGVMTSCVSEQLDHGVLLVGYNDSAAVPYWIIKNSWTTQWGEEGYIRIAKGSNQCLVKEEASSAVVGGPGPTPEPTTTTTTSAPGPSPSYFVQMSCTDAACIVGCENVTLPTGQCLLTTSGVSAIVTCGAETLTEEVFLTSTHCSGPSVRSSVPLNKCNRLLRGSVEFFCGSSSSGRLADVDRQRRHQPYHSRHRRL
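Purified cruzain (1.5 nM final) was preincubated with compounds for 15 min at room temperature in 100 mM sodium acetate pH 5.5, 5 mM DTT, 0.01% Triton X-100. Reaction started with 2 uM Z-FR-AMC; AMC fluorescence change over 60 s gave activity.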
LASV entry inh: qHTS for Inhibitors of binding or entry into cells for Lassa Virus; Lassa virus pseudotype entry inhibition, cell reporter; control for the full effect not named in the record; Potency, µM (top dose mostly 37.9 µM), inactives show top-dose activity change, negative = inhibition, most hits filed as inhibitors; actives 1.2% (n = 300,000); AID 540256, 2011; active means well fitted inhibition curve with a large enough effect; inconclusive means small, poorly fitted or top-dose-only effect, or effect the other way; inactive means flat fitted curve, though single readings scatter; tested in HEK293 cells; also: % is scaled to controls: 0 for no effect and ±100 for the full control effect; nearly all actives have a fitted effect of over 50% in size; luciferase read-out
2A StopGo: High Throughput Screening for Foot and Mouth Disease Virus Antivirals. human cells with a luciferase reporter of 2A StopGo recoding; control for the full effect not named in the record. Potency, µM (highest dose often 57.9 µM), for the others: top-dose signal change, negative = less light. actives 1.2% (n = 410,000); active = well fitted falling curve with a large enough effect; inconclusive = small, poorly fitted or top-dose-only effect; inactive = no such curve, though single readings can be large or run the other way; tested in HEK293T cells; also: % is scaled to controls: 0 for no effect and ±100 for the full control effect; nearly all actives have a fitted effect of over 45% in size; luciferase light after 4 h
SARS PLpro yeast: qHTS of Yeast-based Assay for SARS-CoV PLP; actives 0.19% (n = 330,000); Potency, µM (titrated, usually from 32.9 µM), without a hit: at the top dose activity, positive = growth rescue; S. cerevisiae expressing SARS-CoV PLpro, growth rescue; control for the full effect not named in the record; active means well fitted rising curve with a large enough effect; inconclusive means small, poorly fitted or top-dose-only effect; inactive means no such curve, though single readings can be large or run the other way; also: 0% is about no effect; nearly all actives have a fitted effect of over 55% in size; growth read by luminescence after 48 h
Cruzain inh noDet: qHTS Assay for Promiscuous and Specific Inhibitors of Cruzain (without detergent); purified cruzain, Z-FR-AMC fluorescence, no detergent; Potency, µM, without a hit: max response, negative = inhibition, most hits filed as inhibitors; actives 2.3% (n = 200,000); AID 1476, 2009;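 also: plate controls were enzyme without inhibitor for no effect and buffer without enzyme for full effect; nearly all actives have a fitted effect of over 40% in size; top concentration of the series not given in the record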
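Purified cruzain at 1.5 nM, pre-incubated 15 min with compound at room temperature in 100 mM sodium acetate pH 5.5, 5 mM DTT, 0.00005% Triton X-100. Reaction started with 2 uM Z-FR-AMC; AMC fluorescence increase over 60 s gives rate.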
Marburg entry inh: qHTS for inhibitors of binding or entry into cells for Marburg Virus | Marburg virus pseudotyped entry inhibition, cell reporter; control for the full effect not named in the record; about a third of the inactives were read at about 46 µM | actives 1.8% (n = 300,000) | Potency, µM (doses to about 37.8 µM), for inactives: at the highest dose activity change, negative = inhibition, usual class: inhibitors; active = well fitted inhibition curve with a large enough effect; inconclusive = small, poorly fitted or top-dose-only effect, or effect the other way; inactive = flat fitted curve, though single readings scatter; tested in HEK293 cells; about a fifth of its hits are not listed in these tables; also: % is scaled to controls: 0 for no effect and ±100 for the full control effect; luciferase read-out
RE007 growth inh: qHTS Assay for Inhibitors of the HIV-1 protein Vpr. S. pombe RE007 Vpr strain, BacTiter-Glo ATP luminescence, 24 h; control for the full effect not named in the record. actives 0.21% (n = 360,000). Potency, µM (highest dose often 92.2 µM), inactives show at the top dose activity change, negative = less growth; active = well fitted falling curve with a large enough effect; inconclusive = small, poorly fitted or top-dose-only effect; inactive = no such curve, though single readings can be large or run the other way;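 also: % is scaled to controls: 0 for no effect and ±100 for the full control effect; nearly all actives have a fitted effect of over 50% in size; the assay follows cell death caused by Vpr and the record does not say whether a fall means rescue or toxicity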
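Fission yeast strain RE007, carrying one chromosomally integrated HIV-1 vpr copy, was seeded at OD 0.01 in PMG+AL medium with 23 nL pinned compound. After 24 h at 30 °C and 99% humidity, viability was read by BacTiter-Glo luminescence.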
NS1 function inh: qHTS Assay for Inhibitors of Influenza NS1 Protein Function. Potency, µM (series often up to 46.1 µM), inactives show top-dose activity, positive = more growth. actives 0.4% (n = 270,000). AID 2326, 2010. S. cerevisiae slowed by influenza A NS1, growth recovery by OD600; active means well fitted rising curve with a large enough effect; inconclusive means small, poorly fitted or top-dose-only effect; inactive means no such curve, though single readings can be large or run the other way; also: nearly all actives have a fitted effect of over 50% in size
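Recovery from NS1-induced slow growth read by OD600 in budding yeast switched to galactose assay medium (pH 6.0, -URA) at 1:100 dilution. Compound 23 nl per well; the matching strain lacking NS1 serves as control.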
Active calls of the source: *; ? = inconclusive; / = not tested or not shown; & = joins results of further samples; [ ] = another dose, or the depositor's remark. Unless noted, calls follow the shape of the dose curve; as a rule, active = well fitted curve in the direction sought with a large enough effect; inconclusive = small, poorly fitted or top-dose-only effect, or another doubt; inactive = no such curve, though single readings can be large; an effect the other way counts as inactive or inconclusive. Potency is read from the fitted curve at half-maximal effect.

compound | Cruzain Triton | LASV entry inh | 2A StopGo | SARS PLpro yeast | Cruzain inh noDet | Marburg entry inh | RE007 growth inh | NS1 function inh
O=C(CS(=O)(=O)Cc1ccccc1)Nc1ccc(S(=O)(=O)N2CCCCCC2)cc1 | -6.9% | ? | 32%[activator] | -3% | 11% | -12% | 2% | 17%
O=C(CSc1nnc(C23CC4CC(CC(C4)C2)C3)o1)Nc1ccc(N2CCOCC2)c(Cl)c1 | -0.8% | ? | 6% | -6% | 13% | -24% | 8% | -45%
COc1ccc(OC)c(C(c2nnnn2CCC(C)C)N2CCN(C(=O)c3ccco3)CC2)c1 (stereo not given) | 1.0% | -10% | 4% | -5% | ? | -25% | 9% | -5%
COc1cccc(Cc2nc3ccccc3nc2SCC(=O)N2CCCc3ccccc32)c1 | 5.7% | -8%[46.1 µM] | -14% | / | -8% | / | / | /
O=S(=O)(NCCN1CCOCC1)c1ccc2c(c1)OCCO2 | / | -4% | 21% | 1% | / | 27%[46.1 µM] | 6% | /
CC1C(=O)N2CCCc3cc(S(=O)(=O)N4CCC(C(N)=O)CC4)cc1c32 (stereo not given) | -1.4% | ? | -1%&16% | 1% | -12% | -20%&-20%[46.1 µM] | 21% | 12%
CC(=O)Nc1ccc(N2CCN(c3ccc(F)cc3)CC2)cc1 | / | / | -5% | 0% | / | / | -14% | 5%
COc1cccc(OC(=O)CSc2nnc(-c3ccccc3Br)o2)c1 | -2.5% | 0% | -2% | -25% | -12% | 4%&4% | -8% | -53%
Cc1cc(Cl)ccc1C(=O)C1CCCN(C(=O)c2cccnc2C)C1 (stereo not given) | / | / | -19% | 2% | / | / | -5% | 7%
COc1ccc(/C=N/n2c(-c3n[nH]c4c3CCC4)n[nH]c2=S)cc1OC | -6.0% | -12% | -21% | 2% | -6% | -7% | 11% | ?
COc1ccc(Cc2nc3ccccc3[nH]2)cc1OC | / | ? | ? | -1% | / | -16%[46.1 µM] | 7% | -1%
O=S(=O)(c1ccc(Cl)cc1)N1CCN(C2CCCCCC2)CC1 | -2.8% | ? | -12% | -5% | -5% | -1% | 20% | -5%
O=C(OC1CCOC1=O)c1ccc2ccccc2n1 (stereo not given) | -5.5% | 19% | 1% | 1% | -2% | 3% | 18% | -1%
CC12CCC(C(=O)N(CCCCN3CCN(Cc4ccccc4)CC3)C1=O)C2(C)C (stereo not given) | / | 6%[46.1 µM] | -15% | 0% | / | ? | -14% | 1%
CCOc1cc(NS(=O)(=O)c2ccc(NC(C)=O)cc2)c(OCC)cc1NC(=O)c1cccs1 | -2.8% | -12% | 0% | 13% | ? | 2% | 3% | 0%

(cont.)
compound | Cruzain Triton | LASV entry inh | 2A StopGo | SARS PLpro yeast | Cruzain inh noDet | Marburg entry inh | RE007 growth inh | NS1 function inh
Cn1c(CNC(=O)CCNC(=O)c2ccc(Br)cc2)cc(=O)n(C)c1=O | / | / | -3% | 1% | / | / | 11% | 0%
Cc1c(OCC(=O)N2CCC(C(N)=O)CC2)ccc2c3c(c(=O)oc12)CCC3 | / | / | -3% | -6% | / | / | -1% | 2%
O=C(NC(=S)Nc1ccc(Cl)c(C(=O)O)c1)c1ccco1 | / | / | 27% | -4% | / | / | 18% | 6%
Cc1cc(C)cc(Oc2nc3ccccn3c(=O)c2/C=C(\C#N)C(=O)NC2CCS(=O)(=O)C2)c1 (stereo not given) | / | ? | -24% | -2% | / | ? | -2% | -8%
Cc1ccc(CNc2nc(-c3ccco3)nn2S(C)(=O)=O)cc1 | -2.3% | 26%[46.1 µM] | 32%[activator] | / | 2% | ? | / | /
Cc1ccc(C(CNS(=O)(=O)c2cc(F)ccc2F)N2CCN(C)CC2)cc1 (stereo not given) | / | -15% | -10% | -4% | / | ? | -13% | /
CCS(=O)(=O)N1CCC(NC(C)=O)(c2ccccc2)CC1 | -1.0% | -3% | 13% | 5% | -2% | -3%[46.1 µM] | -14% | 8%
Cc1cc(C)n(CCNC(=O)C2CCC(=O)N(CCc3cccc(F)c3)C2)n1 (stereo not given) | / | 8% | -12% | 4% | / | ? | 5% | -1%
N#C/C(=C\c1ccccc1OCc1ccc(C(=O)O)cc1)c1ccccc1 | / | -21%[46.1 µM] | 7% | -1% | / | 13%[46.1 µM] | 0% | /
CCOC(=O)CC1=CC(=O)Nc2ccccc2N1 | -0.1% | -10% | -10% | -2% | -5% | -7% | 13% | -11%
CC(C)COC(=O)n1ccc(C(=O)N2CCCCC2)n1 | 3.4% | ? | 0% | -1% | 2% | ? | 7% | -13%
COC(=O)C(C)N(C#N)c1nc(C)cc(C)n1 (stereo not given) | 5.8% | 1% | 0% | -2% | -2% | ? | 1% | 7%
CC(C)CNc1ncnc2c1cnn2Cc1ccc(Cl)cc1 | / | 25%[46.1 µM] | -26% | -1% | / | 10%[46.1 µM] | 4% | -5%
CN(C(=O)COC(=O)/C=C/c1ccc2ccccc2n1)C1CCS(=O)(=O)C1 (stereo not given) | / | -30% | -11% | -2% | / | ? | -12% | /
CCC(=O)Nc1ccccc1C(=O)OCc1ccc(C(=O)c2ccccc2)cc1 | 2.9% | -1% | ? | 1% | 17% | 11% | 3% | -9%

New compounds follow
compound | Cruzain Triton | LASV entry inh | 2A StopGo | SARS PLpro yeast | Cruzain inh noDet | Marburg entry inh | RE007 growth inh | NS1 function inh
CCc1nnc(NC(=O)CSc2nnc(-c3ccncc3)n2C)s1 | -2.1% | 4% | 11% | 3% | 4% | 28% | -1% | 8%
CN=C(Nc1ccc(Br)cc1)SC1CC(=O)N(c2ccc(OC)cc2)C1=O (stereo not given) | / | -24% | -24% | -3% | / | -21%[46.1 µM] | -10% | 0%
CN(C(=O)c1ccc(OC2CCN(CCc3ccccc3)CC2)cc1)C1CCOCC1 | / | / | -10% | 1% | / | / | 3% | 3%
Cc1ccccc1C(=O)NNc1ccc([N+](=O)[O-])cc1 | -1.6% | 10% | 19% | / | -8% | -9% | 4% | -22%
C[C@H](NC(=O)c1nc[nH]c1C(=O)NCCCCCNC(=O)OC(C)(C)C)C(=O)OCc1ccccc1 | / | / | -29% | -1% | / | / | 0% | 2%
N#Cc1nc(-c2ccco2)oc1N1CCOCC1 | -8.5% | 5% | -8% | -17% | -10% | 17% | -6% | 3%
CC(=O)Nc1ccc(OCCOc2ccc(/C=C3\C(=N)N4N=C(C)SC4=NC3=O)cc2)cc1 | / | 23%[46.1 µM] | -23% | 0% | / | 0%[46.1 µM] | 0% | 3%
COc1ccc(NC2=C(c3ccc(OC)cc3)C(=O)c3ccccc32)cc1 | -7.1% | 0% | 2% | 7% | 3% | 22% | 0% | 24%
CCC(CC)COC(=O)C1=C(C)NC(=O)NC1c1ccccc1Br (stereo not given) | / | -16% | ? | 0% | / | -14% | 0% | 12%
CCCNC(=O)c1cccc(NC(=O)C(C)C)c1 | / | / | 58%[activator] | 0% | / | / | -2% | 4%
CC(=O)c1ccc2c3c(ccc(O)c13)CC2 | -7.2% | 10% | / | 0% | 1% | -10% | 3% | -42%
O=C(NCNC(=O)c1ccccc1)c1ccccc1 | 3.0% | 12% | / | -5% | -4% | -4% | 14% | 2%
COc1ccc(CCN(CC(=O)NCc2ccc(F)cc2)C(=O)c2snc(C(N)=O)c2N)cc1OC | / | 11%[46.1 µM] | ? | 0% | / | 2%[46.1 µM] | -6% | 2%
O=C(O)COc1ccc2c(-c3ccccc3)cc(=O)oc2c1 | -6.2% | 10% | 31%[activator] | 0% | -4% | 8% | 24% | 6%
CCCC1Nc2ccc(C(=O)O)cc2C2C=CCC12 (stereo not given) | -6.3% | -2% | -6% | -11% | 14% | -4% | 3% | ?
COc1cccc(-c2nc(CS(=O)(=O)CC(=O)N3CCc4ccccc43)c(C)o2)c1 | -2.8% | / | -30% | 5% | 2% | / | 2% | 5%
COc1ccc(NC(=O)c2ccc(-c3nc(CSc4ccccc4)c(C)o3)cc2)c(OC)c1 | -3.7% | 2%[46.1 µM] | ? | / | 0% | / | / | /
COc1ccc(/C=C/C(=O)N(c2ccccn2)C2CCCCC2)cc1OC | / | ? | 29% | -6% | / | 5%[46.1 µM] | -21% | -3%

Another view of some results above:
Second line of a record – Cruzain Triton, LASV entry inh, 2A StopGo, SARS PLpro yeast, Cruzain inh noDet, Marburg entry inh, RE007 growth inh, NS1 function inh
> CCC(CC)COC(=O)C1=C(C)NC(=O)NC1c1ccccc1Br (stereo not given)
  /, -16%, ?, 0%, /, -14%, 0%, 12%
> CCCNC(=O)c1cccc(NC(=O)C(C)C)c1
  /, /, 58%[activator], 0%, /, /, -2%, 4%
> CC(=O)c1ccc2c3c(ccc(O)c13)CC2
  -7.2%, 10%, /, 0%, 1%, -10%, 3%, -42%
> O=C(NCNC(=O)c1ccccc1)c1ccccc1
  3.0%, 12%, /, -5%, -4%, -4%, 14%, 2%
> COc1ccc(CCN(CC(=O)NCc2ccc(F)cc2)C(=O)c2snc(C(N)=O)c2N)cc1OC
  /, 11%[46.1 µM], ?, 0%, /, 2%[46.1 µM], -6%, 2%
> O=C(O)COc1ccc2c(-c3ccccc3)cc(=O)oc2c1
  -6.2%, 10%, 31%[activator], 0%, -4%, 8%, 24%, 6%
> CCCC1Nc2ccc(C(=O)O)cc2C2C=CCC12 (stereo not given)
  -6.3%, -2%, -6%, -11%, 14%, -4%, 3%, ?
> COc1cccc(-c2nc(CS(=O)(=O)CC(=O)N3CCc4ccccc43)c(C)o2)c1
  -2.8%, /, -30%, 5%, 2%, /, 2%, 5%
> COc1ccc(NC(=O)c2ccc(-c3nc(CSc4ccccc4)c(C)o3)cc2)c(OC)c1
  -3.7%, 2%[46.1 µM], ?, /, 0%, /, /, /
> COc1ccc(/C=C/C(=O)N(c2ccccn2)C2CCCCC2)cc1OC
  /, ?, 29%, -6%, /, 5%[46.1 µM], -21%, -3%
